From PubChem
MT1-MMP act inh: inhibitors of human MT1-MMP activation; P50281; HT1080 RFP-PRO-GFP cells, GFP/RFP ratio fluorescence, overnight; percent of plate control window, DMSO zero; GFP/RFP ratio change, % at 20 µM; actives 0.061% (n = 360,000); AID 651647;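 active means GFP/RFP ratio change of at least 30% with cell ATP level not reduced by more than half and red fluorescence within 50% of control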; further: strong numbers were not always called active
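Material – HT1080 RFP-PRO-GFP cells · Control set – DMSO wells and RFP-L50D-GFP cells · Incubation – overnight cell settling, then overnight compound exposure, 37 °C, 5% CO2 · Compound dosing – single-point 20 µM compound, 1% DMSO · Read-out – GFP/RFP fluorescence ratio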
eIF4H inh: inhibitors of RNA binding by human eIF4H | Q15056 | eIF4H fluorescence polarization binding assay | inhibition, % at 35 µM | actives 0.94% (n = 290,000);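 active means 50% or more with normal probe brightness, or confirmed in later tests; inconclusive means above 50% with abnormal brightness, or retests that disagree; inactive means below 50% or failed in later tests; about a fifth of its hits are not listed in these tables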;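 further: calls also rest on retests at 20 µM and on dose response follow-up; 0% = protein and probe with vehicle and 100% = probe without protein; strong numbers were not always called active; many hits fall short of the cut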
HIV Env fusion: blocks HIV Env-driven cell-cell fusion | HeLa-JRFL Env/CEM21 cell fusion, luciferase | inhibition, % at 12.3 µM | actives 1.1% (n = 360,000);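 active means mean replicate inhibition score of at least 50 and every replicate individually at or above 50; inconclusive means only one of the two criteria met; inactive means mean below 50 and not all replicates reaching 50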;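 further: 0% = plate neutral controls and 100% = maraviroc near 300 nM; one replicate is shown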
Yeast UUG start: modulators of start codon recognition fidelity in yeast. S. cerevisiae UUG-firefly luciferase reporter, luminescence/redox ratio. activity score, % at 18.7 µM. actives 0.13% (n = 350,000). AID 602363;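 active means replicate mean at a twofold rise or more, about +100% in these data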;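 further: firefly luciferase made from a UUG start codon reports start codon fidelity; reporter light over untreated wells divided by growth signal over untreated wells; some hits fall short of that in this replicate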
PABP FP inh: blocks human PABP binding to poly(A) RNA; fluorescence polarization; inhibition, % at 35 µM; actives 1% (n = 290,000); AID 2014;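 active means 50% or more with normal probe brightness, or confirmed in later tests; inconclusive means above 50% with abnormal brightness, or retests that disagree; inactive means below 50% or failed in later tests; about a fifth of its hits are not listed in these tables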;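 further: calls also rest on retests at 20 µM and on dose response follow-up; controls were probe without protein and protein plus probe with vehicle; some compounds called inactive have numbers as strong as hits; many hits fall short of the cut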
Target sequence (P11940 whole entry, looked up): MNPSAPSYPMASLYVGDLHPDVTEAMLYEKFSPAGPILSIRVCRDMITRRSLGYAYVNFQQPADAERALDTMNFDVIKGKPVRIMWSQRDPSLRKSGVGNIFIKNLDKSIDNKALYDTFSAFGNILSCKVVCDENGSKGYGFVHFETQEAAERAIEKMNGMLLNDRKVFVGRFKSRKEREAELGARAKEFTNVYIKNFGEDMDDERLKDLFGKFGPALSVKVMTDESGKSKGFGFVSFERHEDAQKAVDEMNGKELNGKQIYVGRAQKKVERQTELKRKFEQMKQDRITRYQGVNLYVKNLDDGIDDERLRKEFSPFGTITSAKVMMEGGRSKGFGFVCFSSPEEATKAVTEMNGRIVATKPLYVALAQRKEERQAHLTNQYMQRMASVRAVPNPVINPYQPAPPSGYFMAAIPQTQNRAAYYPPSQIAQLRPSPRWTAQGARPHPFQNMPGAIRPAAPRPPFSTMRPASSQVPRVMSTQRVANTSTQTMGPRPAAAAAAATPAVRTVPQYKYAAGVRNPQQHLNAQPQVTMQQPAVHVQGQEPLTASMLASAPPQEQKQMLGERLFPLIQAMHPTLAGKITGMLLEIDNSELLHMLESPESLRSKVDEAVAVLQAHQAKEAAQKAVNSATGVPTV
Rce1 inhib: blocks yeast Ras-converting enzyme; Q03530; yeast membranes, quenched prenylated peptide cleavage fluorescence; calls only; actives 0.27% (n = 290,000); AID 2563;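 active means fall in fluorescence gain of 50% or more versus controls, with final raw signal at or below 3038400; inconclusive means same 50% fall but final raw signal above 3038400; inactive means fall in fluorescence gain under 50%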;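 further: plate controls were neutral control wells for no effect and wells lacking membranes for full effect; tested at 10 µM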
CSC inhib: cancer stem cell inhibition. cancer stem cell-like cells viability, luminescence. AID 2717. actives 1.1% (n = 300,000). inhibition, % at 7.5 µM;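 active means mean at 75% or more and at least half the replicates too; inconclusive means mean and replicates disagree; tested in HMLE shEcad cells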;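 further: 0% = median of negative and 100% = median of positive control wells; the first replicate is given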
PABP FP inh retest: further read-out of PABP FP inh, marked with its call; inhibition, %; compound at 20 µM; confirmation repeats;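 mean of two retest wells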
MT1-MMP act inh RFP: second read-out of MT1-MMP act inh, no call of its own (marks repeat the call); RFP signal change, %; measured here: RFP expression control read;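 0 = vehicle wells; hits needed this value within 50% of zero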
Active calls of the source: *; i = inactive; ? = inconclusive; nt = not tested or not shown.

SMILES	MT1-MMP act inh	MT1-MMP act inh RFP	eIF4H inh	HIV Env fusion	Yeast UUG start	PABP FP inh	Rce1 inhib	CSC inhib	others
CCOc1ccc(S(=O)(=O)N2CCN(C(=O)c3cccn3C)CC2)cc1	-2	-7	-10	nt	-3	8	i	-4
COc1ccc(OC)c(-n2nnnc2SCC(=O)NCCc2ccccc2)c1	-6	-3	-4	-4	12	4	i	6
CCc1ccccc1NC(=O)COc1ccc(C(=S)N2CCCC2)cc1	0	0	-2	11	nt	-8	i	-9
Cc1nc(-c2coc3c(CN(C)C)c(O)ccc3c2=O)cs1	4	2	-6	-24	-8	0	i	-26
CCc1nnc(NS(=O)(=O)c2ccc(N/C=C\C(=O)c3cccc(OC)c3)cc2)s1	-2	-5	0	15	nt	21	nt	0
Cc1cc(C)n(CC(=O)N2c3ccccc3Sc3ccccc32)n1	-3	0	6	-81	-15	1	i	7
COc1ccc(NC(=O)COC(=O)Cc2c[nH]c3ccccc23)cc1OC	0	-2	0	10	nt	40	i	1
CCOC(=O)CN1C(=O)S/C(=C\c2ccc3c(c2)OCO3)C1=O	1	3	-4	-24	5	4	i	-4
Cc1ccc(OCc2ccoc2C(=O)O)cc1C	2	7	39	-24	-5	17	i	-13
Cc1cc(C)n(-c2ccc(C(=O)Nc3cccc(S(=O)(=O)N4CCCC4)c3)cc2)n1	0	-15	-7	34	3	-3	i	-16

Retrieved by compound from above, five records:
SMILES	MT1-MMP act inh	MT1-MMP act inh RFP	eIF4H inh	HIV Env fusion	Yeast UUG start	PABP FP inh	Rce1 inhib	CSC inhib	others
Cc1ccc(OCc2ccoc2C(=O)O)cc1C	2	7	39	-24	-5	17	i	-13
CCOc1ccc(S(=O)(=O)N2CCN(C(=O)c3cccn3C)CC2)cc1	-2	-7	-10	nt	-3	8	i	-4
CCc1nnc(NS(=O)(=O)c2ccc(N/C=C\C(=O)c3cccc(OC)c3)cc2)s1	-2	-5	0	15	nt	21	nt	0
CCc1ccccc1NC(=O)COc1ccc(C(=S)N2CCCC2)cc1	0	0	-2	11	nt	-8	i	-9
Cc1cc(C)n(CC(=O)N2c3ccccc3Sc3ccccc32)n1	-3	0	6	-81	-15	1	i	7

The results go on.
SMILES	MT1-MMP act inh	MT1-MMP act inh RFP	eIF4H inh	HIV Env fusion	Yeast UUG start	PABP FP inh	Rce1 inhib	CSC inhib	others
Cc1ccccc1OCCN(C#N)c1nc(N(C)C)nc(N(C)C)n1	-6	-8	-7	7	nt	-2	i	-8
COc1ccc(OC)c(S(=O)(=O)N2CCCC2C(=O)N2CCc3ccccc3C2)c1 (stereo not given)	1	0	-4	0	3	-1	i	-14
O=C(CCNS(=O)(=O)c1ccccc1)N1CCCCCCC1	-1	-1	nt	66*	nt	nt	i	nt
CCOC(=O)C1=C[C@@H](C(C)C)N(S(=O)(=O)c2ccc(C)cc2)[C@H]1c1ccc(C(F)(F)F)cc1	-4	-16	nt	35	-13	nt	nt	nt
COC(=O)[C@@H]1CCCN1C(=O)c1ccc(OC2CCN(Cc3ccccn3)CC2)cc1	1	3	-1	-1	-7	7	i	0
Cc1cc(C(=O)Nc2cc(Br)ccc2O)on1	2	2	3	20	-16	-6	i	23
N#Cc1c(NC(=O)CSc2n[nH]c(Cc3ccccc3)n2)oc(-c2ccccc2)c1-c1ccccc1	-1	-1	-10	nt	-13	-12	i	102*
Cc1cc(C(=O)N2CCN(c3ccccc3O)CC2)c(C)o1	2	5	nt	-2	3	nt	i	-7
CCN1CCCSC1=S	0	0	nt	10	-14	nt	nt	nt
CC(=O)c1cccc(N=Nc2c(-c3ccccc3)[nH]n(-c3ccccc3)c2=O)c1	6	-1	-5	-9	nt	-9	i	-4
Cc1cccc(-c2nnc(SCc3nc4ccccc4[nH]3)n2Cc2ccco2)c1	-1	-4	-3	nt	-9	-3	i	7
Cc1ccccc1CNC(=O)c1ccc2nc(N3CCOCC3)sc2c1	3	-5	-12	-23	-5	-16	i	4
C/C(=N\O)c1ccccc1C(=O)O	3	7	8	nt	-15	9	i	0
COc1cccc(C(=O)NC(=S)Nc2ccc3oc(=O)ccc3c2)c1	1	-1	-8	-8	-30	0	i	-13
O=C(NCc1cccs1)c1ccc(S(=O)(=O)N2CCOCC2)cc1	2	7	-9	1	-18	4	i	32
COc1cc(/C=C2\NC(=S)N(C)C2=O)ccc1OCc1cccc(F)c1	0	1	-1	6	8	9	i	-1
CCc1nnc(NC(=O)CCCSc2nc3ccccc3[nH]2)s1	1	-2	5	18	nt	6	i	-4
CCOC(=O)C1CCN(C(=O)c2ccc(OCC(=O)Nc3ccc(OCC)cc3)c(OC)c2)CC1	6	-6	nt	35	nt	nt	i	-2
Cc1cc(C)c2nc3s/c(=C/c4ccc5c(c4)n(C)c(=O)n5C)c(=O)n3c2c1	nt	nt	-7	nt	nt	6	i	nt
CCOc1ccc(C(=O)NCC(=O)NCC(c2ccc(OC)cc2)N2CCCC2)cc1 (stereo not given)	4	1	nt	-4	3	nt	i	-5
CCc1nnnn1-c1ccc([N+](=O)[O-])cc1C	1	3	-1	12	nt	2	i	-5
Cc1nc(N2CCN(c3ccccc3)CC2)[nH]c(=O)c1C	-4	-2	-2	1	2	4	i	-10
CCN(CC)S(=O)(=O)c1ccc(=O)n(CC(=O)N2CCCc3cc(C)ccc32)c1	1	-2	nt	3	3	nt	nt	-16
C/C(=N\Nc1nc2c(s1)CCCC2)c1ccccc1	3	8	3	-163	-32	22	i	-6
CCSc1nnc(NC(=O)c2ccc(C)cc2)s1	1	2	-9	-150	-16	-4	i	15
C=CC[C@@H](CC(=O)N[C@H](CO)Cc1ccccc1)C(=O)N[C@H](COC(=O)[C@@H](CC=C)Cc1ccc(F)cc1)C(C)(C)C	-5	-7	nt	11	2	nt	nt	5
O=C(Nc1ccc(Br)cc1)C1CCN(c2cnccn2)CC1	-2	-4	-6	15	-22	5	i	12
C/C(=N\O)C(C)Oc1ccc(Cl)cc1 (stereo not given)	-1	-1	0	-6	nt	-11	i	2
COc1ccc(C(=O)Nc2ccc(F)cc2F)cc1OC	5	4	-10	-21	nt	-3	i	-2
CCc1ccc(C(=O)O)cc1	-2	3	-5	18	-14	5	i	-7

Copied from the listing, four compounds:
SMILES	MT1-MMP act inh	MT1-MMP act inh RFP	eIF4H inh	HIV Env fusion	Yeast UUG start	PABP FP inh	Rce1 inhib	CSC inhib	others
CCc1nnnn1-c1ccc([N+](=O)[O-])cc1C	1	3	-1	12	nt	2	i	-5
Cc1nc(N2CCN(c3ccccc3)CC2)[nH]c(=O)c1C	-4	-2	-2	1	2	4	i	-10
CCN(CC)S(=O)(=O)c1ccc(=O)n(CC(=O)N2CCCc3cc(C)ccc32)c1	1	-2	nt	3	3	nt	nt	-16
C/C(=N\Nc1nc2c(s1)CCCC2)c1ccccc1	3	8	3	-163	-32	22	i	-6

The listing continues.
SMILES	MT1-MMP act inh	MT1-MMP act inh RFP	eIF4H inh	HIV Env fusion	Yeast UUG start	PABP FP inh	Rce1 inhib	CSC inhib	others
Cc1cccc(NC(=O)c2cccc(S(=O)(=O)N3CCCC3)c2)n1	6	-1	nt	-6	nt	nt	i	2
COc1ccc(-n2ccnc(SCC(=O)NC3CCCC3)c2=O)cc1	5	-1	-1	-3	-3	10	i	2
Cc1nn(C)c(Oc2ccccc2)c1CCNC(=O)CCl	-7	-4	-1	12	nt	9	i	0
O=C(NNc1c(Cl)cc(Cl)cc1Cl)C1CCC1	3	4	-8	nt	nt	-3	i	-6
N#C/C(=C\c1c(N2CCN(Cc3ccccc3)CC2)nc2ccccn2c1=O)S(=O)(=O)c1ccccc1	0	0	?	-12	nt	23*	i	6	PABP FP inh retest=92*
Cc1ccc(CCNC(=O)c2nnc(CS(=O)(=O)c3ccccc3)o2)cc1	4	5	5	-7	-5	-9	i	6
O=C(Nc1ccccc1Cl)c1cc(S(=O)(=O)N2CCCC(C(=O)O)C2)ccc1F (stereo not given)	-1	0	0	-14	4	6	i	5
COc1ccc(NC(=S)N2CCC(C(=O)c3ccc(C)cc3)CC2)cc1	2	-3	2	-10	-38	3	i	1
COc1cccc(-c2c(-c3cc(OC)cc(OC)c3)n(C)c3ccc(-c4ccc(OC)nc4)cc23)c1	-6	-6	nt	nt	-7	nt	nt	22
CCC(C)(C)C1CCc2[nH]nc(C(=O)NCCN3CCOCC3)c2C1 (stereo not given)	-1	-3	nt	8	4	nt	nt	28
COc1ccc(NC(=O)NNC(=O)c2ccc(-c3ccccc3)cc2)c(OC)c1	-3	2	-6	-4	0	-5	i	3
CC(=O)c1cc2c(cc1NC(=O)c1cc3nc(C(C)C)cc(C(F)(F)F)n3n1)OCO2	5	1	-2	-24	-22	1	i	-5
Cc1ccc(S(=O)(=O)N/N=C/c2ccc(O)cc2O)cc1[N+](=O)[O-]	-2	-1	5	-6	-13	-6	i	2
CC1(C)CC2CN(C(=O)Cc3ccccc3)C(C)(C2)C1 (stereo not given)	-6	-1	-6	16	nt	1	i	-2
CCN(c1ccccc1)S(=O)(=O)c1cccc(C(=O)N(C)CCOc2ccccc2)c1	3	-6	nt	-9	3	nt	i	-1
CC(=O)N(Cc1ccccc1)c1ccccc1C(=O)O	-2	4	-20	-8	-9	2	i	-15
CCCCc1n[nH]c2c1C(=O)CC(C)(C)C2	2	4	-4	nt	-2	-6	nt	2
CCc1n(CC(O)COC2CCCCC2)c2ccccc2[n+]1C (stereo not given)	-4	-4	1	15	nt	53*	i	0
COc1ccc(CNC(=O)c2nnn(-c3cccc(C(F)(F)F)c3)c2N)cc1	2	-3	1	-10	-19	4	i	6
O=C(NC(=S)Nc1ccc(S(=O)(=O)N2CCCCC2)cc1)c1cccs1	3	-1	2	nt	nt	-1	i	6
COC(=O)c1ccc(CSC2=NC[C@@H]3[C@@H]4C(=O)N(Cc5ccccc5)C(=O)[C@@H]4[C@](Cc4ccccc4)(C(=O)OC)N23)cc1	-4	-9	nt	?	-2	nt	nt	nt
O=C(/C=C/c1ccc(OC2CSC2)cc1)c1ccccc1	-3	-4	-8	-162	-17	-1	i	-2
CC(=O)c1ccc(OC2(C)CCN(Cc3cccn3-c3nccs3)C2)cc1 (stereo not given)	1	2	nt	-19	-4	nt	nt	nt
COc1c(C)cccc1C(=O)NC(=S)Nc1cccc2nsnc12	0	-1	-3	-28	nt	-4	nt	nt
O=C1OC(N2CCN(C(=O)C3CCCO3)CC2)c2ccccc21 (stereo not given)	1	9	-1	nt	3	-4	i	1
O=C(CSc1nnc(SCc2ccc(Cl)cc2)s1)N/N=C/c1ccccc1C(=O)O	9	-1	-8	-22	-13	-1	i	15
COc1ccnc(Oc2ccc(F)cc2)c1C(=O)N/C=N/OCc1ccc(F)cc1Cl	4	-6	1	nt	-18	-3	i	14
CN(CCC#N)Cc1cc(=O)oc2ccc3ccccc3c12	-5	-4	-4	-37	nt	0	i	4
Clc1ccc2nc(-c3ccc4c(c3)OCO4)cn2c1	1	-5	2	-129	-63	-1	i	38
CCN1C(=O)[C@@H]2[C@@H](c3ccc(-c4ccc(C(C)=O)cc4)cc3)N3CCCC[C@@]3(C(=O)OC)[C@@H]2C1=O	-4	-3	nt	12	-22	nt	i	7
O=C(CCc1nnc(CCCCc2ccccc2)o1)N(CCO)Cc1ccccc1	-4	-1	-1	32	4	1	i	nt

These rows are one share of the data; count on the stated rates, not on these rows.
